# Screening data (PubChem BioAssay)
# Rango complex inh: qHTS Assay for Inhibitors of Rango (Ran-regulated importin-beta cargo) - Importin beta complex formation; hit rate 0.031% among 340,000; Importin subunit beta-1 (Homo sapiens), Q14974; Potency, µM (doses to about 92.2 µM), inactives show at the top dose inhibition of complex formation; Rango CFP/YFP FRET sensor + importin beta, 45 min; AID 540263, 2011; active = rising FRET ratio curve, often small or poorly fitted; inconclusive = mostly compound fluorescence or quenching in the first reads; inactive = flat curves in all reads;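 further: potency means the concentration at half of the fitted maximal effect; 0% = DMSO wells and 100% = buffer wells lacking importin beta; nearly all actives have a fitted effect of over 15% in size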
#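 FRET biosensor Rango (snurportin 1 IBB between N-terminal EYFP and C-terminal Cerulean), 50 nM in PBS/1 mM DTT/0.02% Tween-20/0.1% BSA, preincubated 5 min RT with compound; 0.125 microM importin beta added, 45 min RT, CFP/YFP FRET ratio read.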
# Rango dissoc inh: qHTS Assay for Inhibitors of RanGTP induced Rango (Ran-regulated importin-beta cargo) - Importin beta complex dissociation; Snurportin-1 (Homo sapiens) + GTP-binding nuclear protein Ran (Homo sapiens) + Importin …; Biochemical FRET Rango-importin beta, RanGTP-induced dissociation; Potency, µM (doses to about 46.1 µM), for inactives: at the top dose activity change, negative = inhibition; hit rate 0.071% among 340,000; AID 540253, 2011; active means falling FRET ratio curve, often poorly fitted, with flat reads before Ran was added; inconclusive means other falling curves, or compound fluorescence or quenching; inactive means flat or rising ratio curve;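 further: potency means the concentration at half of the fitted maximal effect; % of control where 0% means no effect; nearly all actives have a fitted effect of over 45% in size; -100% = wells without RanGTP and RCC1; the record marks most hits as doubtful in a second field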
#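 Quantitative HTS using a FRET biosensor: 0.1 uM Rango, 0.25 uM importin beta, 0.6 uM Ran, 2 mM GTP, 0.2 uM RCC1 final, PBS with DTT, Tween-20 and BSA. Post-read taken 45 min after Ran addition.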
# GLA inh pH 4.5: qHTS Assay for Inhibitors of Human alpha-Galactosidase at pH 4.5; activity change, negative = inhibition, % at 105 µM; purified enzyme, 4-MU-alpha-Gal fluorescence, pH 4.5; Alpha-galactosidase A (Homo sapiens), P06280; AID 1467, 2008; 230,000 tested, under 10 active; inconclusive = small, poorly fitted or top-dose-only inhibition, or a rising curve; inactive = flat fitted curve, though single readings scatter; no compound was filed as active;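 further: 0% = full activity with enzyme and -100% = basal without enzyme; dose as in the result columns while the protocol names 77 µM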
# Target sequence (P06280 whole entry, looked up): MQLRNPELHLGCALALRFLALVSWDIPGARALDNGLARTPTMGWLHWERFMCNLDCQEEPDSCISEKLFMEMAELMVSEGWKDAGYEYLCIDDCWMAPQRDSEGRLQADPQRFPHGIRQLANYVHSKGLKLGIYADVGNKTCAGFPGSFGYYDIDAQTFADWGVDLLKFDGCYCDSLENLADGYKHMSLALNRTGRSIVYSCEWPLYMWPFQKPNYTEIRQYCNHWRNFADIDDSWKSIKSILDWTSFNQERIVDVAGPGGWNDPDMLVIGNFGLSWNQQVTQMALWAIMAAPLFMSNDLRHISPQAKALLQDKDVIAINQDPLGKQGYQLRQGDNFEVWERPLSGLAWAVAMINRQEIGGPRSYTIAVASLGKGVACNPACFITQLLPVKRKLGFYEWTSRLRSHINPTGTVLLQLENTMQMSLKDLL
# miR-21 reporter: qHTS Assay for Modulators of miRNAs and/orActivators of miR-21. HeLa miR-21 FLuc reporter, luciferase, 48 h. Potency, µM (top dose mostly 38.3 µM), for the others: at the highest dose reporter change, positive = more light. 340,000 tested, under 10 active; active = well fitted rising curve with a large enough effect; inconclusive = small, poorly fitted or top-dose-only effect; inactive = no such curve, though single readings can be large or run the other way;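 further: % of control where 0% means no effect; miR-21 action dims this reporter so a rising signal means less miR-21 action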
#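 Using DMEM plus 10% FBS, HeLa miR-21-FLuc cells are incubated with test compounds (final up to about 40uM) for 48 hours; firefly luciferase signal is then imaged following reagent-mediated lysis.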
# An asterisk follows results filed as active; u = inconclusive; x = no result given; [ ] = remark or other dose.
SMILES,Rango complex inh,Rango dissoc inh,GLA inh pH 4.5,miR-21 reporter
COc1ccc(C(=O)N2CCOC2CNC(=O)C(=O)NCc2ccc(F)cc2)cc1 (configuration not stated),0.1%,-4.9%,x,-3.4%
CN(C)CCCNC(=O)CC1C[C@H](C(=O)N2CCOCC2)[C@@]2(CCC3CCCC3)c3[nH]c4ccccc4c3CCN2C1=O (some centres not stated),1.1%,0.2%,x,x
COc1ccc(-n2ccnc2SCC(=O)Nc2cc(C)on2)cc1,-1.6%,-1.2%,x,14.2%
CSCCC(NC(=O)c1cc(C(C)(C)C)oc1C)C(=O)O (configuration not stated),-0.9%,20.7%,8.6,-0.2%
Cc1c(C(=O)N(C)C)sc(NC(=O)c2cccc([N+](=O)[O-])c2)c1C#N,1.8%,-6.4%,-9.6,-15.4%
CCOc1ccc(NC2OC(CO)C(O)C(O)C2O)c([N+](=O)[O-])c1 (configuration not stated),2.3%,10.9%,-6.5,-1.8%
Cc1c(O[C@@H]2O[C@H](CO)[C@@H](O)[C@H](O)[C@H]2O)ccc2c1oc(=O)c1ccccc12,0.7%,10.4%,x,-38.8%
CN(Cc1ccccc1)Cc1nc2c(c(=O)n(C)c(=O)n2C)n1Cc1ccc(Cl)cc1,-3.7%,2.5%,-4.8,-1.0%
O=C(O)c1ccc(CS(=O)(=O)Cc2ccccc2F)o1,4.0%,7.2%,-1.4,-9.8%
CCOC(=O)c1c(C)nc2sc3c(=O)n(-c4ccc(C(C)=O)cc4)nnc3c2c1-c1ccc(OC)cc1,u,1.7%,2.2,3.5%
CN(C)S(=O)(=O)c1cccc(NC(=O)CO/N=C(\N)c2ccccc2)c1,0.0%,-0.2%,x,x
CCN(CC)S(=O)(=O)c1ccc2oc(SCC(=O)Nc3cc(C)on3)nc2c1,-4.0%,-1.1%,x,x
CCN1C(=O)[C@@H]2[C@@H](c3ccc(-c4ccccc4)cc3)N3CCC[C@@]3(C(=O)OC)[C@@H]2C1=O,-0.4%,-16.6%,x,x
O=C(CN1CCN(c2ccc(F)cc2)CC1)c1cccs1,0.1%,-5.8%,-4.9,-2.6%
COc1ccc(OC)c(NC(=O)c2cc3n(n2)C(C(F)(F)F)CC(c2ccc4c(c2)OCO4)N3)c1 (configuration not stated),0.5%,-3.6%,x,-6.1%
O=C(O)c1ccc(NC(=S)NC(=O)C(c2ccccc2)c2ccccc2)cc1,1.9%,4.9%,x,-2.3%
O=C(Cc1ccc(Cl)cc1)N/N=C/c1cccc(O)c1,-0.5%,8.0%,x,15.0%
Nc1[nH]c(=O)[nH]c(=O)c1N=Nc1cccc(Cl)c1,2.1%,1.4%,-1.8,0.5%
CCN(CC)C(=O)c1sc(NC(=S)N2CCN(C(=O)C3CCCO3)CC2)c(C(=O)OC)c1C (configuration not stated),-6.6%,-0.4%,x,1.6%
COc1ccc(N(CCC(=O)Nc2ccccc2F)S(=O)(=O)c2ccc(C)cc2C)cc1,-0.8%,-2.2%,x,x
CN(c1cccc(NC(=O)c2ccc(Cl)c(S(=O)(=O)N3CCOCC3)c2)c1)S(C)(=O)=O,-2.4%,3.7%,x,9.1%
CC(=O)CSc1ncnc2c1oc1ccccc12,u,6.1%,5.0,-57.9%
O=S(=O)(c1cccs1)N1CN(Cc2cccs2)c2nc3ccccc3nc21,-0.1%,-2.5%,-7.2,-9.5%
CCOC(=O)C(NC(=O)Nc1ccc(Cl)cn1)(Oc1ccccc1)C(F)(F)F (configuration not stated),-3.9%,7.2%,3.6,-7.0%
CC(=O)NC1(C(Cl)(Cl)Cl)Oc2ccccc2O1,-0.5%,-5.7%,5.8,-6.1%
CCN(CC)c1nc2nonc2nc1N(CC)CC,0.5%,16.7%,-8.6,-7.8%
CCOC(=O)C1CCN(C(=O)C2CCN(S(=O)(=O)N3CCCC3)CC2)CC1,-2.3%,-8.6%,13.2,-4.8%
CCc1cccc(NC(=O)CC2Oc3ccccc3NC2=O)c1 (configuration not stated),1.6%,9.3%,x,-7.4%
O=C(COc1ccc(S(=O)(=O)N2CCCC2)cc1)N1CCCC1,-1.3%,19.5%,x,6.9%
Nc1cccc(/C=C/c2ccncc2)c1,-0.6%,7.4%,-4.4,-41.7%
Cc1ccc(S(=O)(=O)Nc2ccc(Cl)cn2)cc1,-2.7%,9.3%,x,-11.8%
NC(=O)CSc1nnc(COc2ccccc2)n1N,1.1%,-12.6%,-2.4,-0.4%
CCC1(C)OC(=O)NN(c2ccc(C)cc2)C1(C)O (configuration not stated),-3.5%,-3.3%,0.9,-2.8%
CCCc1nnc(NC(=O)Cn2c(=O)oc3cc(Br)ccc32)s1,-1.2%,u,-0.3,0.9%
O=[N+]([O-])c1ccccc1CCc1cnc(Cl)s1,-1.7%,-3.2%,x,-20.3%
COc1ccc2sc(N(CCCN(C)C)C(=O)c3ccc(S(=O)(=O)N4CCCc5ccccc54)cc3)nc2c1,1.7%,-4.2%,x,x
O=c1[nH]c(=S)[nH]c2nc(-c3cccs3)cc(C(F)(F)F)c12,-0.4%,-4.3%,x,-12.2%
Cc1cccc(OCCn2cnc(Cl)c2Cl)c1,2.1%,1.8%,1.4,-2.2%
Cc1ccc(C)c(S(=O)(=O)N2CCCC2CNC(=O)C(=O)NCc2ccco2)c1 (configuration not stated),0.5%,3.6%,x,x
O=C(CNC(=O)c1cccc([N+](=O)[O-])c1)OCCCC(=O)c1ccc(F)cc1,-1.9%,-6.2%,x,x
COc1cc(/C=C(\C(=O)O)c2ccc(S(=O)(=O)N3CCCC3)s2)cc(OC)c1,-1.7%,-12.6%,x,x
O=C(COC(=O)/C=C/c1ccco1)Nc1ccc(F)cc1Cl,4.5%,11.6%,7.5,-6.1%
C=C(C)c1cccc(C(C)(C)NC(=O)N2CCN(c3ccc(OC)cc3)CC2)c1,-3.5%,0.9%,2.2,1.6%
COc1ccc(C)cc1N(CC(=O)N/N=C/c1ccc2c(c1)OCO2)S(C)(=O)=O,-1.6%,10.4%,6.7,-2.7%
COn1c(C)c(C(C)=O)c2c3nonc3ccc21,-2.4%,-24.4%,1.6,2.9%
COc1cccc(CN2c3ccc(Br)cc3C(=O)CS2(=O)=O)c1,-0.9%,-6.5%,x,x
COCCCN1C(=O)CC(C(=O)OC)=C1C,3.5%,-4.0%,11.3[21.1 µM],1.7%
Cn1nc(-c2ccccc2)c(C#N)c1Sc1cccc(Cl)c1,8.3%,5.7%,-1.2,-3.4%

# Some of these compounds in order of formula weight, ascending:
SMILES,Rango complex inh,Rango dissoc inh,GLA inh pH 4.5,miR-21 reporter
COCCCN1C(=O)CC(C(=O)OC)=C1C,3.5%,-4.0%,11.3[21.1 µM],1.7%
C=C(C)c1cccc(C(C)(C)NC(=O)N2CCN(c3ccc(OC)cc3)CC2)c1,-3.5%,0.9%,2.2,1.6%
COc1cc(/C=C(\C(=O)O)c2ccc(S(=O)(=O)N3CCCC3)s2)cc(OC)c1,-1.7%,-12.6%,x,x

# Further structures follow:
SMILES,Rango complex inh,Rango dissoc inh,GLA inh pH 4.5,miR-21 reporter
O=[N+]([O-])c1ccc(-c2ccc(/C=N/Nc3nc(NCc4ccccc4)nc(N4CCOCC4)n3)o2)cc1,u,u,-4.7,0.3%
CS(=O)(=O)c1ccc(C(=O)OCC(=O)NCc2cccs2)cc1[N+](=O)[O-],-0.4%,3.9%,x,x
O=C1C2C3c4ccccc4C(c4ccccc43)C2C(=O)N1c1cccnc1 (configuration not stated),2.5%,-23.9%,-5.6,10.7%
CC1CCN(C(=O)CCCC(=O)O)CC1,-4.2%,0.3%,-5.2,-2.3%
COc1cc(CNC(=O)CCn2nc(C)c3c(C)n(-c4ccccc4)nc3c2=O)cc(OC)c1OC,4.7%,-0.6%,x,0.5%
COc1ccc(C(=O)CSC2=C(C#N)C3(CCCCC3)C(C#N)=C(N)N2)cc1,-5.0%,1.8%,-10.2,-0.4%
COc1ccc(CCNC(=O)CCCCCN2C(=O)c3ccccc3C2=O)cc1,1.2%,5.8%,-24.1,-1.8%
CC(=O)N1CCN(S(=O)(=O)c2cccc(C(=O)OCC(=O)NC(=O)c3cccn3C)c2)CC1,-0.3%,-4.2%,-0.5,-4.6%
O=C(COc1ccc(Br)cc1)NNC(=S)NC(=O)c1ccccc1[N+](=O)[O-],0.8%,3.0%,-1.0,-8.7%
C=CCNc1cc(C(F)(F)F)nc(-c2ccccn2)n1,-5.3%,-14.1%,0.4,-3.0%
CSCCC(NC(=O)c1cccc(S(=O)(=O)N2CCN(C(C)=O)CC2)c1)c1nc2ccccc2[nH]1 (configuration not stated),-0.2%,13.1%,x,x
Fc1cccc(Cc2noc(CN3CCC(c4ccncc4)CC3)n2)c1,0.1%,3.0%,6.8,11.7%
CCOC(=O)C(C(=O)OCC)N(C#N)c1nc(OC)nc(N(C)C)n1,0.3%,1.6%,-1.5,-1.4%
O=C1C=C(c2cc(F)ccc2F)C[C@@H](c2ccc(Cl)cc2)C1,0.0%,-4.0%,x,x
COc1ccc(OC)c(S(=O)(=O)N(C)CC(=O)N2CCN(c3ccccc3F)CC2)c1,-3.0%,-15.8%,-3.5,-4.3%
COc1ccc(C(=O)OCCN2C(=O)c3ccccc3C2=O)cc1OC,1.0%,-1.4%,x,x
O=C(NC1CCCC1)NS(=O)(=O)c1ccccc1Cl,0.6%,-13.7%,3.0,-3.9%
COc1ccc(-c2cc([N+](=O)[O-])ccc2OCC(=O)N(C)CC(=O)Nc2ccc(C)cc2)cc1,-1.6%,11.4%,x,x
Cc1cccc(N(C(=O)c2nsc(Cl)c2Cl)C(C(=O)NC2CCCC2)c2ccc(O)cc2)c1C (configuration not stated),-0.3%,3.6%,7.8,23.9%
COc1ccccc1OCC(=O)Nc1cccc(N(C)S(C)(=O)=O)c1,0.8%,-11.6%,1.2,-5.1%
Cn1cnc([N+](=O)[O-])c1Oc1cccc(O)c1,-1.1%,-2.6%,-10.3,-0.2%
Cc1c(OCc2nn[nH]n2)ccc2c3c(c(=O)oc12)CCC(C)C3 (configuration not stated),u,-22.1%,7.7,-3.2%
COC(=O)c1cn(CCOc2ccc(C)cc2)c2ccccc12,2.0%,0.0%,0.2,-0.5%
Cc1ccc(NC(=O)CN(C)C(=O)c2ccc(OCc3c(C)noc3C)cc2)cc1,0.7%,0.2%,x,x
COc1ccc(-n2nc(C(=O)NCC(=O)N3CC(C)CC(C)C3)c3ccccc3c2=O)cc1 (configuration not stated),2.8%,-6.7%,x,5.5%
CCN1CCN(C(=O)C2(NC(=O)Nc3ccccc3Cl)CCCCC2)CC1,-2.4%,0.9%,2.0,-1.9%
COc1ccc(N2CCN(Cc3nc4cc(Cl)ccc4c(=O)[nH]3)CC2)cc1,-0.5%,-13.9%,5.2,-2.4%
N#CCSCC(=O)Nc1ccccc1,0.2%,1.4%,-4.7,-20.8%
COc1ccc(CSCCN)cc1Cl,0.7%,-2.5%,1.3,-20.0%
COc1ccc(/C(N)=N/OC(=O)CCC2CCCC2)cc1OC,5.4%,-1.4%,x,-34.1%
COc1cccc(CN(C)C(=O)c2ccc(NC(=O)CC3SC(N4CCCCC4)=NC3=O)cc2)c1OC (configuration not stated),0.8%,-2.5%,x,x
O=C(COc1ncnc2ccc(Br)cc12)NC1CCCC1,-4.7%,6.1%,x,x
O=Cc1ccccc1-n1cncn1,-0.3%,7.4%,2.9,-3.3%
COc1ccc(NC(=O)CN(C)C(=O)/C=C/c2cn(-c3ccccc3)nc2-c2ccc(F)cc2)cc1,-0.4%,0.7%,x,x
COc1ccccc1C(C)NCC(=O)Nc1c(F)cccc1F (configuration not stated),-0.6%,4.4%,-1.7,-5.4%
Cc1cc(C)n(CC(O)COc2ccc(C(C)C)c(C)c2)n1 (configuration not stated),0.6%,-17.2%,x,-11.1%

# These rows are one share of the data; count on the stated rates, not on these rows.
